BJeLR lethal: BJeLR cell viability loss. 300,000 tested, 0.17% active. inhibition, % (no concentration beside the values). AID 1554. BJeLR (HRASV12) viability, CellTiter-Glo ATP luminescence, 48 h; reference of the scale not given here;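 active = replicate mean above 50%; inconclusive = above 50% but judged a plate artefact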;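 note: 50 nL library stock added to about 25 µL; numbers are from one replicate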
RN4220 kill: S. aureus RN4220 growth inhibition; OD600, 16 h; inhibition, % (concentration not given with the values); 330,000 tested, 0.33% active; AID 1259311;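 active = z-score of -3 or lower and OD600 up to 0.18 on both plates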;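 note: plate controls were untreated cells for no effect and reference antibiotic for full effect; stock transfer was 100 nL into about 80 µL; one replicate is shown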
PrP UTR inh: suppresses PrP 5' UTR mRNA reporter expression; inhibition, % (test concentration not listed); 340,000 tested, 0.35% active; cell-based PrP 5' UTR mRNA reporter, plate reader; AID 488862;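 active = every replicate at 50% or more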;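 note: 0 = median of the neutral control wells; tested in H4 reporter cells; numbers are from one replicate; inactives centre near -14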
ugtP null kill: kills S. aureus RN4220 lacking UgtP. S. aureus RN4220 ugtP deletion, OD600 growth, 16 h; some inactives read as strong as hits. growth inhibition, % (no concentration beside the values). 330,000 tested, 0.54% active. AID 1259309;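 active = z-score under -3 and OD600 up to 0.15 on both plates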;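 note: plate controls were untreated wells for no effect and antibiotic for full effect; wells of about 80 µL received 100 nL stock; the first replicate is given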
Mtb hypoxia inh: inhibitors of hypoxia-regulated fluorescent reporter in Mycobacterium tuberculosis; 300,000 tested, 0.1% active; fluorescence inhibition, % (concentration not given with the values); M. tuberculosis hypoxia-regulated fluorescent reporter, fluorescence;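 active = 35 to 45% if threefold the growth effect, above 45% if 1.5-fold the growth effect; inactive = the rest, general growth blockers included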;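 note: wells of about 50 µL received 100 nL stock; 0% = vehicle wells and 100% = reference inhibitor wells; whole bacteria with a GFP reporter of the hypoxia response; strong numbers were not always called active; many hits fall short of the cut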
Autofluor counter: counter-screen for toxin protease inhibitors: compound fluorescence; fluorescence intensity (test concentration not listed); 360,000 tested, 3.1% active; compound autofluorescence counterscreen, microsphere flow cytometry; active compounds read high;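 active = at least 3 SD above the mean of all compounds, about 16000 in these data; inconclusive = too few beads counted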;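 note: 100 nL of 1 mM stock went into each well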
Mtb hypoxia inh growth: recorded beside Mtb hypoxia inh, whose call it bears; growth inhibition, %; measured here: M. tuberculosis growth (absorbance);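 0% = vehicle and 100% = reference antibiotic; read after six days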
An asterisk follows results filed as active. Hits appear at their usual frequency; about 3.9% have a hit in one of these screens.

What do the screens show for `CCOc1ccc(C(=O)O/N=C(\N)c2ccccn2)cc1OCC`?
BJeLR lethal: -11.1; RN4220 kill: 2.5; PrP UTR inh: -57.5; ugtP null kill: -0.4; Mtb hypoxia inh: 4.2; Autofluor counter: 5961; Mtb hypoxia inh growth: 8.4

What do the screens show for `O=C(Cn1nnc2ccccc2c1=O)N1CCOCC1`?
BJeLR lethal: 2.7; RN4220 kill: -3.5; PrP UTR inh: -21.0; ugtP null kill: 1.0; Mtb hypoxia inh: -15.6; Autofluor counter: 4754; Mtb hypoxia inh growth: -4.9

What do the screens show for `Cc1ccc(O)c(C(=O)c2cnn(C(=O)COc3ccccc3C#N)c2)c1`?
BJeLR lethal: -7.9; RN4220 kill: 2.0; ugtP null kill: 2.9; Mtb hypoxia inh: 6.6; Mtb hypoxia inh growth: 6.4

How did Cc1ccc(-n2c(CNc3ccc(F)cc3)nnc2SCC(=O)N2CCOCC2)cc1 do in these assays?
BJeLR lethal: 6.5; RN4220 kill: -0.5; PrP UTR inh: 3.0; ugtP null kill: 1.9; Autofluor counter: 4739

How did CCc1oc2c(C)c(O)ccc2c(=O)c1-c1ccc2ccccc2n1 do in these assays?
BJeLR lethal: 6.8; RN4220 kill: 4.1; PrP UTR inh: -16.2; ugtP null kill: -8.2; Mtb hypoxia inh: 8.9; Autofluor counter: 11443; Mtb hypoxia inh growth: 6.4

What do the screens show for `COCCSc1ccccc1C(=O)Nc1cc(C)cc(C)c1`?
BJeLR lethal: -2.4; RN4220 kill: -5.4; PrP UTR inh: -37.4; ugtP null kill: 6.2; Mtb hypoxia inh: 4.7; Autofluor counter: 4306; Mtb hypoxia inh growth: 2.5

How did CCOC(=O)N1CCN(CC(=O)Nc2nc3ccc(OC)cc3s2)CC1 do in these assays?
BJeLR lethal: 8.1; RN4220 kill: 1.2; PrP UTR inh: -17.2; ugtP null kill: 9.4; Mtb hypoxia inh: -1.8; Autofluor counter: 4307; Mtb hypoxia inh growth: 8.0

How did CCn1nnc(-c2ccccc2NS(=O)(=O)c2ccc(S(=O)(=O)N3CCCCCC3)cc2)n1 do in these assays?
BJeLR lethal: 3.1; RN4220 kill: 9.0; PrP UTR inh: -35.9; ugtP null kill: -3.2; Mtb hypoxia inh: 7.0; Autofluor counter: 10467; Mtb hypoxia inh growth: 9.8

Results for CCOCCOC(=O)c1cccc(NC(=O)OCC)c1 ?
BJeLR lethal: 2.0; RN4220 kill: 2.7; PrP UTR inh: -14.6; ugtP null kill: 3.1; Autofluor counter: inconclusive

How did Cc1[nH]c2ccc(C(=O)OCC(=O)NC3(C#N)CCCCC3)cc2c1C do in these assays?
BJeLR lethal: -6.8; RN4220 kill: 0.9; PrP UTR inh: -15.2; ugtP null kill: -0.1; Mtb hypoxia inh: 3.7; Autofluor counter: 4629; Mtb hypoxia inh growth: 7.9

How did Cc1ccc2[nH]c(-c3cccc(F)c3)cc(=O)c2c1 do in these assays?
BJeLR lethal: 33.4; RN4220 kill: 5.6; PrP UTR inh: 60.0*; ugtP null kill: -5.1; Mtb hypoxia inh: 4.5; Autofluor counter: 2835; Mtb hypoxia inh growth: -5.4

What do the screens show for `Cc1ccc(NC(=O)C(C)NC(=O)OCc2ccccc2)cc1C` (centres undefined)?
BJeLR lethal: -3.3; RN4220 kill: 2.6; PrP UTR inh: -12.5; ugtP null kill: 5.9; Mtb hypoxia inh: 17.7; Autofluor counter: 4047; Mtb hypoxia inh growth: -1.2

How did COc1ccccc1C(=O)Nc1ccc(NC(=O)C2CCCCC2)nc1 do in these assays?
BJeLR lethal: -16.4; RN4220 kill: -2.2; PrP UTR inh: -2.5; ugtP null kill: 15.4; Mtb hypoxia inh: 11.7; Autofluor counter: 6071; Mtb hypoxia inh growth: -1.3

Results for Cc1cc(C)n(C(C)Sc2ccccc2)n1 (centres undefined) ?
BJeLR lethal: -10.8; RN4220 kill: 4.1; PrP UTR inh: -13.6; ugtP null kill: -9.1; Mtb hypoxia inh: 14.4; Autofluor counter: 3717; Mtb hypoxia inh growth: 10.7

How did CCOC(=O)C1NN=C(C(=O)c2ccccc2)C1c1ccccc1 (centres undefined) do in these assays?
BJeLR lethal: -20.5; RN4220 kill: 10.6; PrP UTR inh: -10.4; ugtP null kill: 16.9; Mtb hypoxia inh: 6.3; Autofluor counter: 2550; Mtb hypoxia inh growth: 3.3

Results for COc1cccc(-n2c(CN3CCN(Cc4ccccc4)CC3)nc3ccc([N+](=O)[O-])cc3c2=O)c1 ?
BJeLR lethal: -9.8; RN4220 kill: -2.5; ugtP null kill: 2.9; Mtb hypoxia inh: 3.6; Mtb hypoxia inh growth: 2.9

How did O=C1N(CN2CCOCC2)c2ccccc2C12OCC(CCl)O2 (centres undefined) do in these assays?
BJeLR lethal: -5.3; RN4220 kill: 5.0; PrP UTR inh: -24.5; ugtP null kill: 9.3; Mtb hypoxia inh: 5.0; Autofluor counter: 4649; Mtb hypoxia inh growth: -2.5

How did Cc1cnc(NC(=O)c2cncc(Br)c2)s1 do in these assays?
BJeLR lethal: -4.3; RN4220 kill: 4.7; PrP UTR inh: -14.3; ugtP null kill: 4.1; Mtb hypoxia inh: -1.5; Autofluor counter: 4394; Mtb hypoxia inh growth: 3.6

Results for CCCc1ccc(-c2cc(N)n[nH]2)cc1 ?
BJeLR lethal: 3.6; RN4220 kill: 0.9; PrP UTR inh: -23.5; ugtP null kill: -1.1; Mtb hypoxia inh: 15.7; Autofluor counter: 9502; Mtb hypoxia inh growth: 7.9

Results for CC(C)=NNc1nc2c(c(=O)[nH]c(=O)n2C)n1CCc1ccccc1 ?
BJeLR lethal: 2.9; RN4220 kill: 1.4; PrP UTR inh: -19.2; ugtP null kill: -0.2; Mtb hypoxia inh: 0.9; Autofluor counter: 4626; Mtb hypoxia inh growth: -0.3

What do the screens show for `CN1CCC(O)(c2ccc(Cl)cc2)C(C(=O)c2ccc(Cl)cc2)C1` (centres undefined)?
BJeLR lethal: 0.7; RN4220 kill: -6.7; PrP UTR inh: -15.4; ugtP null kill: 10.5; Mtb hypoxia inh: 5.5; Autofluor counter: 1935; Mtb hypoxia inh growth: 5.5

Results for O=C(CSc1nnc(-c2ccccc2)o1)Nn1cnnc1 ?
BJeLR lethal: -3.0; RN4220 kill: -3.2; PrP UTR inh: -9.8; ugtP null kill: -0.2; Mtb hypoxia inh: -3.4; Autofluor counter: 8011; Mtb hypoxia inh growth: -5.6

What do the screens show for `COc1ccc(-n2nc(C(=O)NCC(=O)N(C)Cc3ccccc3)c3ccccc3c2=O)cc1`?
BJeLR lethal: -6.1; RN4220 kill: 1.4; PrP UTR inh: -20.2; ugtP null kill: 4.1; Mtb hypoxia inh: 10.2; Autofluor counter: 5829; Mtb hypoxia inh growth: -1.3

Results for O=C(O)CC/C(=N\Nc1ccccc1[N+](=O)[O-])c1cccs1 ?
BJeLR lethal: 2.3; PrP UTR inh: -9.6; Autofluor counter: 3740

What do the screens show for `CCOC(=O)/C(C#N)=C\C1=C(N2CCCC2)CC(C)(C)OC1`?
BJeLR lethal: -1.3; RN4220 kill: 0.3; PrP UTR inh: -15.1; ugtP null kill: 2.3; Autofluor counter: 4772

Results for CC(C)C(=O)Nc1ccccc1-c1nc2ccccc2[nH]c1=O ?
BJeLR lethal: -6.1; RN4220 kill: 2.8; PrP UTR inh: -14.1; ugtP null kill: 5.1; Mtb hypoxia inh: 8.6; Autofluor counter: 3973; Mtb hypoxia inh growth: 4.5

What do the screens show for `COc1cccc(C(CNc2ccc(S(=O)(=O)N3CCN(C)CC3)cc2[N+](=O)[O-])N(C)C)c1` (centres undefined)?
RN4220 kill: 0.8; PrP UTR inh: -17.5; ugtP null kill: -1.5; Mtb hypoxia inh: 5.5; Autofluor counter: 6158; Mtb hypoxia inh growth: 10.3

Results for Clc1ccccc1NN=Cc1ccc2c(c1)OCO2 ?
RN4220 kill: -6.2; ugtP null kill: -1.1; Mtb hypoxia inh: -6.7; Mtb hypoxia inh growth: 3.8

What do the screens show for `Cc1ccc(-n2cc(CN3CCNC(=O)CC3)c(-c3ccc(F)cc3)n2)cc1`?
BJeLR lethal: 0.0; RN4220 kill: 1.2; PrP UTR inh: -7.6; ugtP null kill: 6.9; Mtb hypoxia inh: -0.5; Autofluor counter: 4324; Mtb hypoxia inh growth: 9.2

What do the screens show for `CNC1CCc2cc(OC)c(OC)c(OC)c2-c2ccc(OC)c(=O)cc21` (centres undefined)?
RN4220 kill: 2.9; ugtP null kill: -4.2; Mtb hypoxia inh: 3.9; Mtb hypoxia inh growth: 8.6

How did O=C(Nc1ccncc1)C1CCN(S(=O)(=O)c2c(Cl)cccc2Cl)CC1 do in these assays?
BJeLR lethal: 1.6; RN4220 kill: 0.9; PrP UTR inh: -10.3; ugtP null kill: -0.8; Mtb hypoxia inh: 0.7; Mtb hypoxia inh growth: -4.4

How did CCOC(=O)c1c(N=Cc2ccc(C)cc2O)sc2c1CCN(C)C2 do in these assays?
RN4220 kill: -1.1; ugtP null kill: 2.9; Mtb hypoxia inh: -8.6; Mtb hypoxia inh growth: -10.7

Results for Cc1cccc(-n2ncc3c2CCCC3NC(=O)CCCN2CCCCC2=O)c1C (centres undefined) ?
BJeLR lethal: -3.8; RN4220 kill: 5.4; PrP UTR inh: -4.8; ugtP null kill: 10.9; Mtb hypoxia inh: 0.5; Autofluor counter: inconclusive; Mtb hypoxia inh growth: 8.8

Results for CCCN(CC(=O)Nc1ccccc1OC)C(=O)C1=COCCO1 ?
RN4220 kill: 0.5; PrP UTR inh: 9.5; ugtP null kill: -0.9; Mtb hypoxia inh: -3.2; Autofluor counter: inconclusive; Mtb hypoxia inh growth: 6.2

Results for N#Cc1c(-c2ccc(C(F)(F)F)cc2)cc(-c2ccccc2)[nH]c1=S ?
BJeLR lethal: -0.4; RN4220 kill: -1.4; PrP UTR inh: -1.3; ugtP null kill: -16.9; Mtb hypoxia inh: 6.9; Autofluor counter: 2541; Mtb hypoxia inh growth: 1.5

How did COc1ccc2[nH]cc(CCNC(=S)NC3CCCC3)c2c1 do in these assays?
BJeLR lethal: -22.2; RN4220 kill: 8.2; PrP UTR inh: -4.7; ugtP null kill: 12.6; Mtb hypoxia inh: 0.9; Autofluor counter: 3734; Mtb hypoxia inh growth: 12.5

What do the screens show for `Cc1ccc(-c2noc(CSc3ccccc3)n2)cc1`?
BJeLR lethal: 2.4; RN4220 kill: 10.5; PrP UTR inh: -124.0; ugtP null kill: 58.4; Mtb hypoxia inh: 12.0; Autofluor counter: 4080; Mtb hypoxia inh growth: 11.5

How did O=[N+]([O-])c1ccccc1CN1CCN(c2ncccn2)CC1 do in these assays?
BJeLR lethal: -14.9; RN4220 kill: 0.5; PrP UTR inh: -18.8; ugtP null kill: 1.7; Mtb hypoxia inh: -4.5; Autofluor counter: 4135; Mtb hypoxia inh growth: 9.0

How did COCCNCCOc1ccc(C(C)(C)c2ccccc2)cc1 do in these assays?
BJeLR lethal: 14.6; RN4220 kill: 6.4; PrP UTR inh: -25.6; ugtP null kill: 56.8; Mtb hypoxia inh: 6.4; Autofluor counter: 2402; Mtb hypoxia inh growth: 4.7

What do the screens show for `O=[N+]([O-])c1ccc(Cl)c(/C=N/Nc2nc(N3CCOCC3)nc(N3CCOCC3)n2)c1`?
BJeLR lethal: 6.5; PrP UTR inh: -11.3; Autofluor counter: 3733

What do the screens show for `CC(NC(=O)CN(C)Cc1cccc(F)c1)c1ccccc1` (centres undefined)?
BJeLR lethal: -5.7; RN4220 kill: 0.6; PrP UTR inh: -27.6; ugtP null kill: 2.9; Mtb hypoxia inh: 7.0; Autofluor counter: 3833; Mtb hypoxia inh growth: 8.0

What do the screens show for `O=C(Nc1nnc(SCc2ccc(Cl)cc2)s1)c1ccco1`?
BJeLR lethal: 1.5; RN4220 kill: -10.6; PrP UTR inh: -4.2; ugtP null kill: 4.6; Mtb hypoxia inh: 19.2; Autofluor counter: 4957; Mtb hypoxia inh growth: 14.8

What do the screens show for `Cc1nc(CN(C)C(=O)CC2C(=O)NCCN2Cc2ccc(-c3ccccc3)cc2)cs1` (centres undefined)?
BJeLR lethal: -2.6; RN4220 kill: 5.7; PrP UTR inh: -10.8; ugtP null kill: 1.4; Mtb hypoxia inh: 2.6; Autofluor counter: 5329; Mtb hypoxia inh growth: 1.9

Compound activity as filed in PubChem.
